Screening results: PubChem, National Center for Advancing Translational Sciences (NCATS)
Rango dissoc inh: inhibition of RanGTP-driven Rango-importin beta dissociation; AID 540253; actives 0.071% (n = 340,000); Biochemical FRET Rango-importin beta, RanGTP-induced dissociation; O95149+P62826; Potency, µM (series often up to 46.1 µM), inactives show top-dose activity change, negative = inhibition; active means falling FRET ratio curve, often poorly fitted, with flat reads before Ran was added; inconclusive means other falling curves, or compound fluorescence or quenching; inactive means flat or rising ratio curve;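 further: potency means the concentration at half of the fitted maximal effect; % of control where 0% means no effect; nearly all actives have a fitted effect of over 45% in size; -100% = wells without RanGTP and RCC1; the record marks most hits as doubtful in a second field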
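Compounds preincubate 5 min with complex of recombinant Rango and importin beta in PBS with 1 mM DTT. Ran (0.6 uM) loaded with 2 mM GTP plus 0.2 uM RCC1 starts dissociation; FRET is recorded 45 min later.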
Rango complex inh: prevents formation of the Rango-importin beta complex; actives 0.031% (n = 340,000); Q14974; Rango CFP/YFP FRET sensor + importin beta, 45 min; AID 540263; Potency, µM (doses to about 92.2 µM), for inactives: top-dose inhibition of complex formation; active = rising FRET ratio curve, often small or poorly fitted; inconclusive = mostly compound fluorescence or quenching in the first reads; inactive = flat curves in all reads;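 further: potency means the concentration at half of the fitted maximal effect; 0% = DMSO wells and 100% = buffer wells lacking importin beta; nearly all actives have a fitted effect of over 15% in size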
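Inhibition scored from the CFP 486 nm/YFP 530 nm FRET ratio 45 min after adding 0.125 microM importin beta to 50 nM Rango biosensor preincubated 5 min with compound (room temperature, PBS with DTT, Tween-20, BSA). No-importin wells as positive control.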
miR-21 reporter: raises the signal of a miR-21 reporter; HeLa miR-21 FLuc reporter, luciferase, 48 h; 340,000 tested, under 10 active; Potency, µM (highest dose often 38.3 µM), inactives show at the highest dose reporter change, positive = more light; AID 2288; active = well fitted rising curve with a large enough effect; inconclusive = small, poorly fitted or top-dose-only effect; inactive = no such curve, though single readings can be large or run the other way;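 further: % of control where 0% means no effect; miR-21 action dims this reporter so a rising signal means less miR-21 action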
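Compounds were titrated across several concentrations (up to approximately 40 uM) and incubated 48 hours with HeLa miR-21-FLuc reporter cells (miR-21 target sequence downstream of FLuc, endogenous miR-21). Readout was firefly luciferase luminescence after lytic detection reagent.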
GLA inh pH 4.5: blocks human alpha-galactosidase A at pH 4.5; 230,000 tested, under 10 active; purified enzyme, 4-MU-alpha-Gal fluorescence, pH 4.5; AID 1467; activity change, negative = inhibition, % at 105 µM; P06280; inconclusive = small, poorly fitted or top-dose-only inhibition, or a rising curve; inactive = flat fitted curve, though single readings scatter; no compound was filed as active;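 further: 0% = full activity with enzyme and -100% = basal without enzyme; dose as in the result columns while the protocol names 77 µM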
Target sequence (P06280 whole entry, looked up): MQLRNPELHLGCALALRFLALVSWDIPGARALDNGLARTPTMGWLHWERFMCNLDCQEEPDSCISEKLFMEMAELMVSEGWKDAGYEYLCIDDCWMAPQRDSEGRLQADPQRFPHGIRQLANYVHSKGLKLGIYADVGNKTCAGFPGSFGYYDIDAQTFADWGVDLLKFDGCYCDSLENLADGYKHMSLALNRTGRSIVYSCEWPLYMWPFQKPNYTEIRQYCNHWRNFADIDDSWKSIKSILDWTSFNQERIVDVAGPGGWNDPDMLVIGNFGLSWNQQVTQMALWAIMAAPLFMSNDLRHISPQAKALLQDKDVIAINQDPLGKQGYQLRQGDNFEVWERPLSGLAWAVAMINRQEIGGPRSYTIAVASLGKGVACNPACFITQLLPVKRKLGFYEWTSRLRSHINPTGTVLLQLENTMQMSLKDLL
An asterisk follows results filed as active; ? = inconclusive; / = no result given; & = joins results of further samples.

SMILES | Rango dissoc inh | Rango complex inh | miR-21 reporter | GLA inh pH 4.5
COC(=O)c1ccccc1S(=O)(=O)N1CCC(C(=O)NCCC2=CCCCC2)CC1 | 3.3% | 8.3% | / | /
Cc1c(C(=O)N2CCN(c3ccccc3)CC2)sc2ncnc(N3CCN(c4ccccn4)CC3)c12 | 3.0% | -3.7% | 8.4% | /
Cc1c(C)c(C)c(C(=O)c2ccc(NC(=O)c3ccccc3C(=O)O)cc2)c(C)c1C | 4.8% | 5.6% | -10.1% | /
O=C(COC(=O)c1cccc(C(=O)OCC(=O)NCc2ccc(F)cc2)n1)NCc1ccc(F)cc1 | 3.8% | 1.9% | -1.7% | 6.1
Nc1ncncc1-c1ccc([N+](=O)[O-])cc1 | 10.4% | -4.0% | 2.1% | 3.7
Cc1ccc(Cn2ccsc2=NC(=O)COC(=O)c2ccc(NC(=O)CC#N)cc2)cc1 | -3.7% | 0.9% | / | /
COC(=O)C(C)NC(=O)COc1ccc2ccccc2c1 (stereo not drawn) | -1.2% | -1.5% | 1.2% | 4.2
CC1(C)N=C(c2ccccc2)C(=O)N1 | 11.4% | -0.1% | -7.0% | 4.6
CC(C)[C@H](NC(=O)c1ccccc1Cl)C(=O)NC1CCCCCC1 | -8.4% | 1.1% | -12.2% | 0.7
COc1ccc(OC)c(NC(=S)NCc2ccccc2OC)c1 | 30.1% | 2.0% | -1.2% | 0.0
Nc1nonc1-n1nnc(C(=O)N/N=C/c2cccc(O)c2)c1CN1CCCC1 | 1.0% | -3.5% | -0.7% | /
Clc1ccc(Cc2nc(-c3ccncc3)no2)cc1 | 16.7% | 5.2% | -24.8% | 0.2
COc1ccc(S(=O)(=O)N(CC(=O)N2CCN(C)CC2)c2ccc(C)cc2)cc1Br | 3.1% | 5.7% | -4.4% | /
CCOC(=O)c1c(-c2ccccc2)oc2ccc(O)c(CN(C)C)c12 | -13.9% | -3.2% | 6.2% | -3.9
O=S(=O)([N-]c1nc2ccccc2nc1-[n+]1ccccc1)c1ccc(F)cc1 | -1.5% | 1.0% | 5.4% | -12.3
COc1cc(C(=O)OCC(=O)NCc2ccccc2)cc(NC(=O)c2ccco2)c1OC | 3.2% | 2.8% | -0.7% | 13.1
Cn1ccnc1SCC(=O)n1c2c(c3ccccc31)CCCC2 | -8.1% | 1.2% | -8.4% | -10.0
NC(=O)CSc1ncnc2c1oc1ccccc12 | 0.7% | -4.6% | -17.8% | 0.8
O=C(NCc1cccc(Cl)c1)C1CCCN(c2ncnc3c2nc2n3CCCCC2)C1 (stereo not drawn) | -0.2% | 4.0% | -1.2% | /
O=C(NNC1CC(=O)N(c2cccc(Cl)c2)C1=O)c1cccnc1 (stereo not drawn) | 3.1% | 2.2% | -2.6% | 5.3
Cc1cc(C)c2nc3nc(C)cc(C)c3c(N)c2c1 | ? | ? | ? | 2.7
COc1cc2c(cc1OC)C(CC(=O)O)N(C(=O)CC1CCCC1)CC2 (stereo not drawn) | 11.5% | 2.8% | -1.3% | /
COc1ccc(C2C(C(=O)N3CC(C)CC(C)C3)c3ccccc3C(=O)N2C)cc1 (stereo not drawn) | 0.3% | 4.7% | -2.8% | -8.1
CC1CC(=O)Nc2ccc([N+](=O)[O-])cc2N1C (stereo not drawn) | -1.4% | 0.3% | -0.5% | -7.8
COc1ccc(N2C(=O)C3C4c5ccccc5C(C=Nc5ccc(C)cc5C)(c5ccccc54)C3C2=O)cc1 (stereo not drawn) | 0.2% | -0.3% | / | /
CSc1nsc(SC)c1NC(=O)N1CCCC1 | -6.0% | 2.7% | -3.2% | 4.9
Cc1c(C(=O)OCC(=O)Nc2cccc(S(N)(=O)=O)c2)oc2c1ccc1ccccc12 | 2.1% | 0.2% | -13.3% | -2.1
O=C(CSc1nncs1)Nc1nccs1 | 11.6% | 1.0% | / | /
O=C(O)c1ccc(-n2nnnc2SCc2ccccc2)cc1 | -14.6% | -2.2% | -1.6% | 7.2
Cc1ccnc(Sc2ncccc2[N+](=O)[O-])n1 | 22.5% | ? | -2.5% | 2.8
CC(=O)c1cn(CC(=O)NCc2ccco2)c2ccccc12 | 2.5% | 2.9% | -18.8% | -13.7
CCOc1ccc(C2c3[nH]c4ccccc4c3CCN2Cc2cn(CC)nc2C)cc1 (stereo not drawn) | -28.0% | 1.9% | 3.7% | -5.9
CCOC(=O)c1c(S(=O)(=O)NCCc2cccs2)c(C)n(C)c1C | 1.8% | 2.5% | -0.7% | /
COCCN(C(=O)CCSc1ccc(F)cc1)c1c(N)n(Cc2ccccc2)c(=O)[nH]c1=O | 3.2% | 1.2% | / | /
CC1=C(/C=C/C(C)=C/C=C/C(C)=C/CO)C(C)(C)CCC1 | -6.8% | -1.5% | / | 7.9&1.5
NC(=O)c1cnn2c(C(F)(F)F)cc(-c3ccccc3)nc12 | 0.0% | -1.5% | -32.7% | 0.4
CCSc1nnc(NC(=O)CSc2nccn2-c2cccc(C)c2)s1 | -2.4% | ? | -14.8% | 3.7
CCC1CCCCN1CCCNC(=O)C1CCN(S(=O)(=O)N2CCCCC2)CC1 (stereo not drawn) | 1.0% | -0.6% | -2.9% | -1.2
COc1ccc(S(=O)(=O)N2CCOCC2)cc1C(=O)NCc1c(C)nn(Cc2ccccc2)c1C | 0.6% | 0.4% | / | /
CC[C@]12c3[nH]c4ccc(Cl)cc4c3CCN1C(=O)[C@@H](CC(=O)NCCCOC)C[C@@H]2C(=O)N1CCN(C(=O)c2ccco2)CC1 | -10.6% | -3.2% | / | /
Cc1cc2ncn(-c3ncnc4sc5c(c34)CCC(C)C5)c2cc1C (stereo not drawn) | -11.1% | -1.2% | -5.6% | 7.1
Cc1cccc(C(=O)C2CCN(S(=O)(=O)c3cccc(C(=O)O)c3)CC2)c1 | -15.5% | 0.2% | 1.1% | /
Cc1nn(C(C)C)c(C)c1CN1CCCC(C(=O)c2cccc(OC(C)C)c2)C1 (stereo not drawn) | -8.4% | 0.3% | 8.4% | -6.3
COc1ccc(CNC(=O)Cc2c[nH]c3ccccc23)cc1OC | 12.5% | 0.5% | 3.2% | /
Cc1ccc(C)c(NC(=O)CN(C)C(=O)COc2ccc3ccccc3c2)c1 | 1.3% | -1.2% | / | /
CCOC(=O)c1sc(NC(=O)CSc2n[nH]c(CC(C)C)n2)nc1C | -1.9% | ? | -6.7% | 1.6
CCN(C(=O)CSc1nnc(CNc2cccc(OC)c2)n1C1CCCCC1)C1CCS(=O)(=O)C1 (stereo not drawn) | 14.9% | 0.3% | -1.8% | /
CCOC(=O)C1CCCN(C(=O)Cn2ncc3c(=O)oc4ccc(C)cc4c32)C1 (stereo not drawn) | -6.2% | -2.6% | / | /

Whole records as entered above. Order of values: Rango dissoc inh, Rango complex inh, miR-21 reporter, GLA inh pH 4.5
Cc1cc2ncn(-c3ncnc4sc5c(c34)CCC(C)C5)c2cc1C (stereo not drawn) is entered as -11.1%, -1.2%, -5.6%, 7.1
Cc1ccc(C)c(NC(=O)CN(C)C(=O)COc2ccc3ccccc3c2)c1 is entered as 1.3%, -1.2%, /, /
CCN(C(=O)CSc1nnc(CNc2cccc(OC)c2)n1C1CCCCC1)C1CCS(=O)(=O)C1 (stereo not drawn) is entered as 14.9%, 0.3%, -1.8%, /
COc1ccc(CNC(=O)Cc2c[nH]c3ccccc23)cc1OC is entered as 12.5%, 0.5%, 3.2%, /

The list continues:
SMILES | Rango dissoc inh | Rango complex inh | miR-21 reporter | GLA inh pH 4.5
COCc1cc(CN2CCCC(CNC(=O)c3ccc(F)cc3)C2)ccc1OC (stereo not drawn) | 0.3% | -1.4% | -0.9% | 3.6
CCOC(=O)CCc1cnccc1-c1cccc(OC)c1O | -7.2% | 1.0% | / | /
Cc1cc(NC(=O)CSCC(=O)N(c2cccc(Cl)c2)C(C(=O)NC2CCCCC2)c2ccc(O)c(O)c2)no1 (stereo not drawn) | -7.6% | 0.5% | -9.2% | -0.3
O=C(O)c1ccc(NC2CC(=O)N(Cc3ccccc3)C2=O)cc1 (stereo not drawn) | -6.4% | 2.9% | -0.3% | -5.2
CN(C(=O)c1cccc(S(=O)(=O)NCc2ccccc2)c1)C1CCCCC1 | -4.1% | -5.1% | / | /
O=C(NCCCNC(=O)c1cnccn1)c1ccc(Br)cc1 | -2.7% | -2.6% | -3.3% | /
O=c1cc(N2CCN(c3ccccc3)CC2)[nH]c(=O)n1-c1ccccc1 | -8.8% | -1.3% | 3.4% | 11.4
CCN(C(=O)COC(=O)c1nc2nc(C)cc(C)n2n1)C1CCS(=O)(=O)C1 (stereo not drawn) | 0.4% | -2.7% | -2.7% | /
CCC(C)[C@H](NC(=O)Nc1ccccc1F)C(=O)O (stereo partly drawn) | 5.7% | 0.3% | 0.7% | -3.9
CCC(=O)N1CCN(c2nc3ccc(Br)cc3s2)CC1 | 26.1% | -2.0% | -27.8% | /
COc1ccc(OC)c(-c2csc(NC(=O)CN3C(=O)NC4(CCCC4)C3=O)n2)c1 | 1.7% | -0.5% | / | /
CCc1ccc2[nH]c(=O)c(Cc3ccccc3)c(O)c2c1 | 10.0% | 3.6% | -6.3% | /
CC(c1nccs1)N(C)C(=O)CCc1nnc(Cc2c[nH]c3ccccc23)o1 (stereo not drawn) | 6.9% | 0.0% | -5.2% | 9.9
CCCC[C@@H]1CNCCN1CCc1cc(C(F)(F)F)cc(C(F)(F)F)c1 | 0.5% | 1.0% | / | /
COC(=O)[C@]1(C)N[C@H](CN(C)C(=O)c2ccccc2)[C@@H]2C(=O)N(Cc3ccccc3)C(=O)[C@@H]21 | -10.7% | 0.7% | / | /
O=C(N/N=C/c1cccnc1)C1CC1(c1ccccc1)c1ccccc1 (stereo not drawn) | -9.8% | 1.8% | 5.0% | 2.8
COc1ccc(OCC(=O)Nc2ccc(Cl)cc2)cc1 | -13.2% | -1.5% | 2.1% | 3.7
CC(Oc1ccc(F)cc1)C(=O)Nc1ccc(S(=O)(=O)NC2=NCCCCC2)cc1 (stereo not drawn) | 10.2% | 1.6% | / | /
CCCNC(=O)CSc1nnc(-c2ccc(F)cc2)o1 | 66.3% | 0.4% | -7.0% | -20.7
Cc1ccc(/C=C/C(=O)O)cc1S(=O)(=O)NCc1ccco1 | -9.1% | -0.7% | -0.3% | -0.4
CC(=O)Nc1ccc(S(=O)(=O)C(C#N)c2nc3ccccc3nc2NCCCO)cc1 (stereo not drawn) | -27.5% | ? | -8.7% | ?
C=C(C)n1c(=O)[nH]c2ccccc21 | -18.8% | 3.3% | -7.2% | 5.2
CCOC(=O)Cn1c(=O)oc2cc(S(=O)(=O)NC3CCCCC3)ccc21 | 0.5% | -0.1% | -1.8% | /
CCc1nnc(NC(=O)CSc2ncnc3c2cnn3-c2ccc(OC)cc2)s1 | -6.6% | -4.3% | -1.2% | -3.9
CCCCCC(=O)N(O)C1CC(=O)N(c2ccccc2)C1=O (stereo not drawn) | -5.7% | -3.3% | 2.9% | 11.4
C=CCC1(N(C(C)=O)c2ccccc2C)CCCCC1 | 11.2% | -3.9% | -1.1% | -1.0
OC(CNC1CCCCC1)CNC1CCCCC1 | -1.1% | 0.5% | 5.8% | 3.8
Cc1ccc2c(c1)C(c1ccc(F)cc1)N(C(=O)c1ccc(S(=O)(=O)N(C)C)cc1)CC(=O)N2 (stereo not drawn) | 3.9% | 0.5% | -2.7% | /
c1ccc2c(c1)ncn2CCOCCOCCn1cnc2ccccc21 | -4.2% | 0.3% | -0.2% | 9.6
CCc1ccc2[nH]c(C(=O)Nc3ccc(C)c(F)c3)cc2c1 | -1.8% | 1.2% | -27.3% | /
CC(C)C1Nc2ccc(C(=O)NCCCN3CCOCC3)cc2NC1=O (stereo not drawn) | -3.7% | 0.6% | 8.2% | /
NCc1ccc(-c2nc3ccccc3o2)cc1 | / | / | -48.4% | -2.0
COCCNC(=S)NN(c1ccccc1)c1ccccc1 | -10.3% | 1.1% | -3.5% | 1.2
O=C(Nc1cc(F)ccc1F)c1cccc(-n2cnnn2)c1 | 26.1% | 1.5% | / | /

A portion of the library. The share of hits here may be higher or lower than overall.
